D2 ag: human D2 receptor agonism in beta-arrestin assay; AID 624465; P14416; hit rate 0.084% among 360,000; activation, % (test concentration not listed); DiscoveRx PathHunter D2 beta-arrestin, luminescence, 90 min; 100% = 57 uM dopamine signal; in the data active = activation above about 40%; inconclusive = about 15% to 40%; inactive = below about 15%; note: compound concentration not given in the record; the text of the record calls up to 30% inactive
Target sequence (P14416 whole entry, looked up): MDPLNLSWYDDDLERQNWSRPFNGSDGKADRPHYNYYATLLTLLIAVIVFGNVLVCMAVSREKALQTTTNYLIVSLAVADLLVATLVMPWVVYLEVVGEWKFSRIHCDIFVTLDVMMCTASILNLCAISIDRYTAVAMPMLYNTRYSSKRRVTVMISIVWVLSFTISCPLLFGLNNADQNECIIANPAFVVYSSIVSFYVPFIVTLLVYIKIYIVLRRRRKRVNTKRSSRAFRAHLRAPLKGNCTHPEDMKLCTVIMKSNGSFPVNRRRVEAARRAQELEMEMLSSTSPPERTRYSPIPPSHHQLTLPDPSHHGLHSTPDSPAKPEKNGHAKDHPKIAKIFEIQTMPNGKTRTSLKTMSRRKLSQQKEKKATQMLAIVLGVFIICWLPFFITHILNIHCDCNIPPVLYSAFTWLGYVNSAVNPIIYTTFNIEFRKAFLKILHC
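DiscoveRx PathHunter D2 beta-arrestin cells (2,100/well) attached overnight, then compound-stimulated 90 min at 37 C in HBSS/10 mM HEPES/0.1% Tween-20 buffer; beta-galactosidase complementation read by luminescence after 1 h at ambient temperature. Dopamine 57 uM final (EC100) as control.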
ClpP mod: qHTS Assay for Activators of ClpP. ATP-dependent Clp protease proteolytic subunit (Bacillus subtilis (strain 168)), P80244. Potency, µM (highest dose often 57.5 µM), without a hit: at the top dose activity change, negative = active. hit rate 1.9% among 340,000. AID 651965, 2013. purified B. subtilis ClpP, FRET peptide cleavage, 20 min; active = well fitted falling curve with a large enough effect; inconclusive = small, poorly fitted or top-dose-only effect; inactive = no such curve, though single readings can be large or run the other way; note: potency is the fitted concentration of half-maximal effect; the source files actives as falling curves though it sought activators and does not explain the sign; nearly all actives have a fitted effect of over 65% in size; many hits overshoot -100%
Target sequence (P80244 whole entry, looked up): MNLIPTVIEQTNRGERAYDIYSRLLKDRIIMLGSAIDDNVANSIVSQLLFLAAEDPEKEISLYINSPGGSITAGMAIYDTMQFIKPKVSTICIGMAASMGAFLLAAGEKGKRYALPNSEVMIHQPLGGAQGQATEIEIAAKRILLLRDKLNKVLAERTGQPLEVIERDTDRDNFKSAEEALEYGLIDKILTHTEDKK
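ClpP 10 microg/mL final, pH 8 Tris/KCl buffer with BSA, glycerol, Tween-20; compound pinned in; FRET-FV substrate; RT 20 min; Ex320/Em430; ΔFRET vs ADEP 5.8 microM, DMSO, no enzyme.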
PINK1 modulator: changes PINK1 expression | hit rate 0.2% among 410,000 | Potency, µM (titrated, usually from 76.6 µM), inactives show at the top dose activation (PINK1 increase), usual class: activators | PINK1 immunofluorescence, high-content cytometry, 24 h; active = well fitted activation curve with a large enough effect; inconclusive = small, poorly fitted or top-dose-only effect; inactive = flat fitted curve, though single readings scatter; cell line not stated here;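 note: potency is the fitted concentration of half-maximal effect; % of control where 0% means no effect; nearly all actives have a fitted effect of over 65% in size; a mitochondrial uncoupler was the plate control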
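Stable cell line, 250 cells/well, 12 h attachment; compounds pinned at 5 concentrations, 24 h; CCCP control. Fixed with nuclear dye, primary antibodies 12 h at 10 degrees C, secondary plus cell stain; laser-scanning cytometer read.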
gsp agonist: agonists of gsp mutant (McCune-Albright syndrome); gsp mutant cells, cAMP HTRF, 30 min; control for the full effect not named in the record; Potency, µM (highest dose often 76.9 µM), inactives show top-dose activation (cAMP increase), actives largely listed as activators; hit rate 0.13% among 340,000; AID 624287; active = well fitted activation curve with a large enough effect; inconclusive = small, poorly fitted or top-dose-only effect, or another doubt; inactive = no such curve, though single readings can be large or run the other way; cell line not stated here;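 note: phosphodiesterase inhibitor Ro 20-1724 added with compounds to block cAMP breakdown; potency is the fitted concentration of half-maximal effect; nearly all actives have a fitted effect of over 60% in size; about a fifth of the inactives were tested at one dose only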
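Cells stably selected in G418 were plated at 2000/well, grown 16-24 hr, then given compounds in DMSO with the PDE inhibitor […] (300 uM solution added) for 30 min at 37C; cAMP was read by HTRF.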
gsp antag: antagonizes gsp, the McCune-Albright syndrome mutation. hit rate 0.4% among 340,000. Potency, µM (doses to about 76.9 µM), without a hit: at the highest dose activity change, negative = inhibition, actives largely listed as inhibitors. gsp-mutant cells, cAMP HTRF, 30 min; control for the full effect not named in the record. AID 624288; active = falling curve of any shape with a large fitted effect; inconclusive = falling curve, mostly with a smaller effect; inactive = flat or rising curve; cell line not stated here;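 note: intracellular cAMP measured with PDE inhibitor Ro 20-1724 present during compound exposure; potency is the fitted concentration of half-maximal effect; % is set by controls: 0 for no effect and ±100 for the full control effect; nearly all actives have a fitted effect of over 65% in size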
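Cells in G418 medium, seeded 16-24 h, 37C; buffer exchange to DPBS + 1 mM CaCl2, 0.5 mM MgCl2, 0.05% BSA; cpds in DMSO + […] (300 uM stock), 30 min 37C; HTRF cAMP detection.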
Sfp PPTase inh: blocks B. subtilis Sfp PPTase activity; Biochemical Sfp PPTase activity, qHTS; Potency, µM, inactives show max response, negative = inhibition, most hits filed as inhibitors; Q9F4F7; hit rate 3.5% among 310,000; active = well fitted inhibition curve with a large enough effect; inconclusive = small, poorly fitted or top-dose-only effect, or another doubt; inactive = no such curve, though single readings can be large or run the other way;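 note: the enzyme is Sfp with the accession as filed and its product quenches rhodamine fluorescence; potency is the fitted concentration of half-maximal effect; 0% = enzyme reaction without inhibitor and -100% = no enzyme wells; top concentration of the series not given in the record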
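With Hepes-Na pH 7.6 buffer containing 10 mM MgCl2, Sfp (15 nM) modified BHQ-2-YbbR (12.5 uM) using rhodamine-CoA (5 uM). Two reads 30 minutes apart at 525/598 nm yielded each well's rate.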
Menin MLL FP FL: displaces fluorescein MLL peptide from human menin; FP activity change, % at 61.4 µM; Fluorescence polarization, fluorescein-MLL peptide displacement from menin; 290,000 tested, under 10 active; inconclusive = falling polarisation curve, or a change in total fluorescence; inactive = total fluorescence flat and polarisation flat or rising; no compound was filed as active; the % refers to the polarisation; negative = inhibition;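 note: % of control where 0% means no effect; inhibitors lower the polarisation; unlabelled MLL peptide was the positive control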
* marks the source's active call; other numbers are inactive results; ? = inconclusive; / = not tested or not shown; & = joins results of further samples; [ ] = dose if it differs, or a comment.

Compound,D2 ag,ClpP mod,PINK1 modulator,gsp agonist,gsp antag,Sfp PPTase inh,Menin MLL FP FL
CC(N)c1csc(Nc2ccc(C(=O)NCCCO)cn2)n1 (stereo unspecified),-4.7,-14.2%,0.9%,/,/,/,/
O=C(CCNC(=O)c1ccccc1)Nc1cccnc1,-2.6,/,-0.8%,1.9%[15.4 µM],-3.3%,-0.3%,7.2
CC1(C)CC(=O)C=C(Nc2ccc(S(N)(=O)=O)cc2)C1,-1.5,-1.0%,1.4%[38.3 µM],1.7%,-0.8%,17.1%,-0.6
OCC[C@H]1C[C@H](O)[C@@H](O)[C@@]2(CCCc3ccccc3O2)O1,-0.7,0.6%,0.9%,-0.1%,11.5%,/,/
COc1ccc(CNS(=O)(=O)CCNCCc2ccccc2)cc1,-1.1,0.0%,0.1%,/,5.2%,/,/
O=C(CCNC(=O)c1ccccc1Cl)NN1C(=O)NC2(CCCCC2)C1=O,-0.4,-0.5%,4.5%,-46.8%,10.6%,/,/
O=C(COC(=O)C1=COCCO1)NCc1ccc(Cl)cc1Cl,-2.5,0.1%,0.0%,-30.7%[inhibitor],/,/,/
COc1ccc(/C=C(\C#N)C(=O)OC2CCOC2=O)cc1 (stereo unspecified),-1.4,/,-1.7%,5.9%[15.4 µM],/,11.5%,2.8
COCCNC(=S)N1CCC(C(=O)c2ccc(F)cc2)CC1,-2.1,-3.2%,-1.5%,-9.6%,3.7%,/,/
COc1ccc(C2(C(=O)Nc3ccc(C(=O)N4CCOCC4)cc3)CCOCC2)cc1,-2.8,-0.6%,-1.5%,-10.5%,14.2%,10.6%,-0.4
CCOC(=O)c1ccc(NC(=S)NCCc2ccc(F)cc2)cc1,4.4,/,?,6.6%[15.4 µM],-7.1%,11.1%,1.1
Cc1cc(C)nc(NC(=O)Nc2ccc(F)cc2F)n1,-1.4,-0.2%,-0.3%,0.1%,-5.9%,9.1%,-0.1
Cn1c(=O)c2c([nH]c(OCc3ccc(Cl)cc3Cl)[n+]2Cc2ccc(F)cc2)n(C)c1=O,-5.9,-1.6%,1.8%,-14.1%,1.7%,9.0%,7.8
O=[N+]([O-])c1cc(Cl)ccc1-c1nc(-c2ccncc2)no1,2.8,/,0.6%,19.0%[15.4 µM],8.8%,10.1%,0.2
O=C(O)C1CSC2(c3ccc4c(c3)OCCO4)CCC(=O)N12 (stereo unspecified),-2.7,0.8%,-0.1%,-17.6%,-4.8%,9.3%,-0.2
O=[N+]([O-])c1ccc(NNC(=S)Nc2ccc(F)cc2)cc1,-1.1,-1.4%,14.1µM*,8.3%,-27.9%,2.51µM*,5.0
Cc1noc(NS(=O)(=O)c2ccc(NC(=O)c3ccc(N4C(=O)c5ccccc5C4=O)cc3)cc2)c1C,0.2,/,-1.0%,-1.7%[15.4 µM],3.2%,19.4%,8.8
Cc1cc(-c2cccs2)c(C#N)c(=S)[nH]1,-7.4,-2.2%,2.1%,4.3%,2.6%,20µM*,6.6
CCOC(=S)SCC(=O)N1CCc2cc(OC)c(OC)cc2C1C1C(=O)CC(C)(C)CC1=O (stereo unspecified),-4.0,/,0.2%,-7.9%[15.4 µM],-11.7%,-17.1%,2.1
O=c1c(Br)c(N2CCOCC2)cnn1-c1ccccc1,-1.9,1.4%,1.2%,10.7%,4.4%,-22.1%,-4.4
CC(O)(c1cccnc1)c1nc(-c2cccc(F)c2)cs1 (stereo unspecified),-2.5,-0.3%,0.6%,/,/,/,/
CCOc1ccc(C=O)cc1CN1CCCCC1,-1.5,-3.7%,-0.2%,?,-10.1%,14.7%,3.4
CN(CC(=O)NCCc1ccccc1)S(=O)(=O)c1cccs1,-4.8,5.0%,0.1%,-0.1%,16.9%,10.8%,-6.3
C/C(Cl)=C\Cn1c(NCCCn2ccnc2)nc2c1c(=O)n(C)c(=O)n2C,-0.9,0.9%,0.0%,0.0%,-5.8%,15.3%,4.3
CCOC(=O)C1=C[C@@H](CC)N(S(=O)(=O)c2ccc([N+](=O)[O-])cc2)[C@H]1c1ccccc1,13.4,-0.2%,0.1%,/,/,/,/
CC(C)CNc1nc2c(c(=O)n(C)c(=O)n2C)n1Cc1cccc(Br)c1,-0.9,-1.1%,9.1%,11.8%,3.0%,6.3%,-0.5
Cc1c(C(=O)N2CCCCC2)c(S(=O)(=O)Nc2cccc(Br)c2)c(C)n1C,-4.2,1.6%,-0.6%,-4.7%,2.3%,4.4%,-1.6
COc1ccc(-c2cc(C(=O)NCc3cccs3)no2)cc1,6.2,-9.0%,-0.3%,?,3.8%,17.7%,4.2
O=C(N/N=C1\NC(=O)C(CO)(CO)S1)c1ccccc1,-1.8,0.5%,0.3%,-10.1%[15.4 µM],-3.0%,-28.7%,0.3
Oc1ccc(-c2cn3c(n2)SCC3)cc1O,9.2,-6.6%,1.4%,1.4%,?,17.8µM*,-0.5
Cc1ccc2nc(-c3cccc(-c4cccc(Cl)c4)c3)c(NCc3ccccc3)n2c1,8.3,3.2%,?,/,-20.7%,/,/
C(=N\n1c2ccccc2c2ccccc21)/c1ccccc1,-2.1,2.9%,21.1%,-26.0%,-10.6%,-12.8%,1.6
O=C(CCN1C(=O)/C(=C/C=C/c2ccccc2)SC1=S)Nc1nc2ccccc2s1,6.5,/,?,-3.7%,8.4%,1.6%,3.0
O=C(CSc1ccccc1C(=O)O)NC12CC3CC(CC(C3)C1)C2,2.3,0.2%,-0.6%,-44.1%[inhibitor],-14.6%,20.8%,3.8
Cc1cc(NS(=O)(=O)c2ccc(NC(=O)NC(C)(C(F)(F)F)C(F)(F)F)cc2)no1,-0.4,-0.2%,-3.1%[38.3 µM],9.8%,10.6%,12.1%,-1.3
COc1ccc(OC)c(NC(=O)CSc2nnc(-c3cccnc3)s2)c1,-4.9,0.5%,0.9%,-4.6%,-18.9%,7.5%,0.2
COc1cc(C=C2C(=O)c3ccccc3C2=O)ccc1O,-9.1,-2.1%,1.7%,23.0%,-7.6%,-8.6%,13.1
CCN(CC)c1ccc(C(=O)OCc2cc(=O)oc3cc(O)ccc23)cc1,0.4,31.6µM*,0.4%,23.4%,-19.3%,5.6%,4.5
N/C(=N/OS(=O)(=O)c1ccc([N+](=O)[O-])cc1)c1ccncc1,6.6,3.4%,0.4%,-10.5%,13.4%,15.2%,-5.0
COc1cc(CNc2ncnc3c2ncn3[C@H]2CN(Cc3cccc(C(F)(F)F)c3)C[C@@H](CO)O2)cc(OC)c1OC,-2.2,-0.4%,5.2%,/,/,/,/
COC(=O)C1=C(Nc2cc(Cl)cc(Cl)c2)CSC1,-5.4,-1.2%,4.6%,0.5%[15.4 µM],1.1%,26.5%,0.9
CCc1nnc(NC(=O)CSc2nnc(Cc3cccn3C)n2CCOC)s1,-2.3,0.3%,0.2%,-29.8%,-8.5%,-4.2%,0.7
CC1CCCCC1NC(=O)C1CCN(S(=O)(=O)N2CCC3(CC2)OCCO3)CC1 (stereo unspecified),-0.2,1.2%,/,-41.3%[inhibitor],-1.3%,8.5%,0.0
CCOC(=O)c1c(-c2ccccc2)csc1NC(=O)COc1ccc2c(C)cc(=O)oc2c1,-1.2,-1.1%,7.4%,-7.1%,5.8%,7.4%,5.1
CCN1C=C(C(=O)OC)C(c2cccc(OC)c2OC)C(C(=O)OC)=C1,-3.2,31.6µM*,0.3%,10.0%[15.4 µM],13.1%,-24.4%,-4.4
Cc1ccccc1NC(=S)N(CCN(C)C)C(C)c1ccco1 (stereo unspecified),1.5,3.4%,0.1%,?,5.9%,19.0%,-0.2
O=C1CN(Cc2cc(=O)oc3cc4c(cc23)CCC4)CCN1,-5.3,/,0.4%,0.6%[15.4 µM],3.7%,23.8%,-2.4
CC(=O)C1=C(O)C(=O)N(C2CCCCC2)C1c1ccccc1 (stereo unspecified),-0.9,1.5%,-1.1%,23.9%,-5.0%,-0.4%,1.3
CN(C)CCN1C(=O)C(O)=C(C(=O)c2cc3ccccc3o2)C1c1ccc(N(C)C)cc1 (stereo unspecified),-6.3,0.3%,0.8%,-22.6%,2.3%,-27.3%,?
Oc1cccc(CCc2ccccn2)c1,-2.0,-1.1%,-4.3%,-13.8%,5.8%,/,/
NC(=O)CC[C@H](NC(=O)[C@H](Cc1ccccc1)n1c(=O)[nH]c2ccccc2c1=O)C(=O)N1CCC[C@H]1C(=O)O,-3.1,-0.3%,1.3%,/,5.6%,4.2%,-6.4
O=C(Cc1ccccc1)Nc1ccc(NC(=O)c2ccccc2)c(Cl)c1,-3.3,-18.3%,0.6%,1.3%,-10.8%,8.6%,3.9
CCOC(=O)c1sc(NC(=O)c2ccccc2F)c(C(N)=O)c1C,-2.5,?,?,?,-12.2%,21.9%,/
CCOC(=O)N1CCC2(CC1)C(C(=O)C13CC4CC(CC(C4)C1)C3)C2(C#N)C#N (stereo unspecified),-4.5,-3.4%,-2.4%,-4.8%,-7.7%,1.4%,5.0
CC(OC(=O)c1cccc(S(=O)(=O)N2CCCCC2)c1)C(=O)NC1CCCCC1C (stereo unspecified),0.8,-1.7%,1.1%,-25.2%,2.2%,10.5%,/
COc1ccccc1CNc1ncncc1-c1cccc(NS(C)(=O)=O)c1,/,/,1.1%,/,/,8.9%,-0.6
Cc1ccc(C)c(NC(=O)C(=O)NCCCN2CCOCC2)c1,-0.1,0.8%,-0.1%&-1.0%,36.9%[15.4 µM],-5.7%,-0.4%,1.2
O=C(C=C(C(=O)c1ccccc1)c1ccccc1)c1ccccc1,-5.9,/,-2.3%,1.3%,-22.2%,/,/
Cc1ccc(NS(=O)(=O)c2cccc3cccnc23)cc1Cl,-0.2,-1.0%,3.3%,15.5%,-2.4%,-4.4%,1.3
CC1=C(C(=O)Nc2ccccc2)C(c2ccccc2)N2C(=O)CSC2=N1 (stereo unspecified),-0.3,-3.1%,1.0%,11.4%,-2.3%,-19.5%,-1.0
COc1ccccc1NC(=O)CC(=O)CSc1nnc(-c2ccc(C)cc2)n1C,-1.3,1.1%,-0.9%,-7.4%,-15.1%,-2.3%,0.2
CC(C)Cn1c(CN(C)Cc2ccccc2)nc2c1c(=O)n(C)c(=O)n2C,-2.4,-0.8%,4.6%,-83.2%[inhibitor],-8.2%,18.3%,-1.0

Screening data from PubChem BioAssay.
